Assay outcomes (PubChem BioAssay)
VDR inh = vitamin D3 receptor (human) inhibition | Potency, µM, for the others: max response, negative = inhibition, actives largely listed as inhibitors | P11473 | hit rate 0.93% among 400,000 | VDR-SRC2-3 peptide fluorescence polarization, 2 h; active means well fitted inhibition curve with a large enough effect; inconclusive means small, poorly fitted or top-dose-only effect, or another doubt; inactive means no such curve, though single readings can be large or run the other way; further: series mostly up to about 120 µM
Target sequence (P11473 whole entry, looked up): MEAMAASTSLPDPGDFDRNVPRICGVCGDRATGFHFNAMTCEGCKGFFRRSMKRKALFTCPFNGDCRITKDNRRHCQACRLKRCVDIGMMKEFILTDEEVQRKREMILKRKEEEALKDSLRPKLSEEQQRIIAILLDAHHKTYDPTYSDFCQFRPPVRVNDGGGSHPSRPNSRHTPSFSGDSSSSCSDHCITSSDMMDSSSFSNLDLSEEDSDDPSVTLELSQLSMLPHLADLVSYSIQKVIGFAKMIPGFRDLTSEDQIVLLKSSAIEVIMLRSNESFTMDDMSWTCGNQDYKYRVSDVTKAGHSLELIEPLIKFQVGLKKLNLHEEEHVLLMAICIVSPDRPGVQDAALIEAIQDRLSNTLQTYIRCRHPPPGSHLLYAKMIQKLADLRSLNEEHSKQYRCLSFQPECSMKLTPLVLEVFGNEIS
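FP read-out; VDR + SRC2-3 coactivator peptide; 23 nl compound by pintool; 2 h RT incubation; reagents held at 4 deg C, protected from light.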
The depositor's hits bear a star; ? = inconclusive; & = joins results of further samples. On the % scale 0 is the no-effect control and ±100 the full control effect; potency means the concentration at half of the fitted maximal effect. These rows are one share of the data; count on the stated rates, not on these rows.

Cc1ccc(CNC(=O)CSc2nc3ccccc3c(=O)n2CCCO)cc1
- VDR inh: 5%

CCn1cc(S(=O)(=O)c2cccc(C)c2)c(=O)c2cc(F)c(N3CCCC(C)C3)cc21 (stereo not drawn)
- VDR inh: 9%

Cn1nc(-c2ccc(Cl)cc2)cc1NC(=O)CC(C)(C)CC(=O)O
- VDR inh: -26%

CCCc1cc(=O)[nH]c2nnc(SCC(=O)Nc3ccc4c(c3)OCCO4)n12
- VDR inh: -23%

Cc1ccc(-n2nc3c(=O)n(C(C)C(=O)NCCC4=CCCCC4)nc(C)c3c2C)cc1 (stereo not drawn)
- VDR inh: -1%

Cc1nn(CCc2nn[nH]n2)c2nc(-c3ccc(Br)cc3)cc(C(F)(F)F)c12
- VDR inh: -2%

Cc1ccc(C)c(Sc2ccc(NC(=O)CCN3C(=O)NC4(CCCC4)C3=O)cc2)c1
- VDR inh: -16%

Cc1ccc(S(=O)(=O)N(C)C)cc1NC(=O)c1ccccc1Br
- VDR inh: 7%

CN(C[C@H](Cc1ccccc1)N(CCN(CCc1ccccc1)N=O)N=O)N=O
- VDR inh: -19%

COc1cc(/C=C/C(=O)O)cc(S(=O)(=O)NCc2ccc3c(c2)OCO3)c1OC
- VDR inh: -9%

Cc1ccc(/C=C/C(=O)NCc2cccs2)cc1
- VDR inh: -12%

O=C(COc1ccc2ccccc2c1)NNC(=O)[C@@H]1CCCC[C@@H]1C(=O)O
- VDR inh: 3%

CCSc1nnc(NC(=O)C2CCN(S(=O)(=O)c3cc(C(F)(F)F)ccc3Cl)CC2)s1
- VDR inh: -18%

Cc1nc(SCCc2nc3ccccc3[nH]2)c2oc3ccccc3c2n1
- VDR inh: -5%

CC(=O)[C@]1(O)Cc2c(O)c3c(c(O)c2[C@@H](O[C@H]2C[C@H](N)[C@H](O)[C@H](C)O2)C1)C(=O)c1c(O)cccc1C3=O
- VDR inh: 1%

Sorted by molar mass (ascending): some entries from above
Cc1ccc(S(=O)(=O)N(C)C)cc1NC(=O)c1ccccc1Br
- VDR inh: 7%

Cc1ccc(CNC(=O)CSc2nc3ccccc3c(=O)n2CCCO)cc1
- VDR inh: 5%

Cc1ccc(-n2nc3c(=O)n(C(C)C(=O)NCCC4=CCCCC4)nc(C)c3c2C)cc1 (stereo not drawn)
- VDR inh: -1%

(further entries)
COc1ccc(NC(=O)Cn2c(=O)c(C)nc3ccccc32)cc1Cl
- VDR inh: 3%

Cc1ccc2c(c1)C(=O)C(=O)N2CCCOc1ccccc1
- VDR inh: -19%

COc1cccc(NC(=O)Nc2nnc(-c3ccccc3SCc3ccccc3)s2)c1
- VDR inh: 9%

COc1cc2[nH]cc(C(=O)NCc3cccs3)c(=O)c2cc1OC
- VDR inh: -6%

O=C(NCC1CCCO1)c1cc(-c2ccccc2)on1 (stereo not drawn)
- VDR inh: 13%

O=C(NCc1ccc(F)cc1)C(c1ccc(F)cc1)N(C(=O)c1csnn1)C1CC1 (stereo not drawn)
- VDR inh: -17%

CC(C)c1cc(-c2nc(-c3ccc(Br)cc3)no2)n[nH]1
- VDR inh: 11%

COc1ccc(-c2nc(CNC(=O)NC3CCCCC3)c(C)o2)c(OC)c1
- VDR inh: 5%

Cc1ccc(Cl)cc1NC(=S)N(C)N
- VDR inh: -7%

CCc1nn(CC(=O)NCc2ccccc2Cl)c(=O)c2cccn12
- VDR inh: -4%&11%

O=C(Nc1ccccc1)/C(=C/c1ccc([N+](=O)[O-])cc1)NC(=O)c1ccccc1
- VDR inh: -12%

CCOC(=O)c1c(C)c(-c2ccccc2)n(CC(=O)NC2CCCCC2)c1C
- VDR inh: 1%

CC12C=CC(=O)C=C1CCC1C2C(=O)CC2(C)C1CCC2(O)C(=O)CO (stereo not drawn)
- VDR inh: -14%

CCN(c1ccccc1)S(=O)(=O)c1ccc(C(=O)NCC2(N(C)C)CCCCC2)cc1
- VDR inh: -23%

Oc1ccc(Br)cc1/C=N/Nc1nc(N2CCCCC2)nc(N2CCOCC2)n1
- VDR inh: 17%

Random excerpt: three compounds from above.
CC12C=CC(=O)C=C1CCC1C2C(=O)CC2(C)C1CCC2(O)C(=O)CO (stereo not drawn)
- VDR inh: -14%

O=C(NCC1CCCO1)c1cc(-c2ccccc2)on1 (stereo not drawn)
- VDR inh: 13%

CCOC(=O)c1c(C)c(-c2ccccc2)n(CC(=O)NC2CCCCC2)c1C
- VDR inh: 1%

New compounds follow.
CCCCOC(=O)C1=C(C)NC(=O)NC1c1cc2c(cc1Br)OCO2 (stereo not drawn)
- VDR inh: ?

COc1ccc(OC)c(C2C(C#N)=C(N)Oc3c2c(C)nn3-c2cccc(Cl)c2)c1 (stereo not drawn)
- VDR inh: -8%

O=C(NC(=S)N1CCOCC1)C12CC3CCC(CC(C3)C1)C2
- VDR inh: -9%

Cc1cc(-c2cc(C(=O)NC3CCCC3)on2)nc(NC2CCCC2)n1
- VDR inh: 18%

O=C(COc1ccc(S(=O)(=O)N2CCCCC2)cc1)NCc1ccncc1
- VDR inh: 2%

C#CCOCCOCCOCCNc1nc(N2CCN(C(=O)Cn3cc(CC(C)O)nn3)CC2)nc(N2CCN(C(=O)Cn3cc(CC(C)O)nn3)CC2)n1 (stereo not drawn)
- VDR inh: -18%

O=C(CSc1nc2c(cnn2-c2cccc(Cl)c2)c(=O)[nH]1)NCCC1=CCCCC1
- VDR inh: -6%

Cc1ccc(-c2nc3cc(C)ccc3o2)cc1
- VDR inh: 10%

O=C(NCc1ccccc1F)c1ccc2c(c1)OCCO2
- VDR inh: -1%

CCCc1nc2cc(CC(=O)OC)ccc2o1
- VDR inh: 2%

Cc1ccccc1CN1C(=O)c2ccccc2Sc2ccc(C(=O)NC3CCCCC3)cc21
- VDR inh: 4%

CC1CCC/C(=N/Nc2ccc([N+](=O)[O-])cc2[N+](=O)[O-])C1 (stereo not drawn)
- VDR inh: -2%

CC(NC(=O)C1CCN(S(=O)(=O)c2ccc3nc4c(c(C(=O)O)c3c2)CCCC4)CC1)c1ccccc1 (stereo not drawn)
- VDR inh: ?

O=C1OCCC1S(=O)(=O)c1ccc2ccccc2c1 (stereo not drawn)
- VDR inh: -13%

Cc1ccccc1C(=O)Nc1c(-c2cccs2)c(=O)c2ccccc2n1C
- VDR inh: -15%

COC(=O)c1cnc(N2CCN(c3ccccc3F)CC2)c2ccccc12
- VDR inh: 7%

O=C(O)c1ccc(N/N=C/c2cc3c(cc2[N+](=O)[O-])OCO3)cc1
- VDR inh: -20%

Cc1nn(Cc2ccc(Cl)cc2)c(C)c1NC(=O)CSc1n[nH]c(C)c1[N+](=O)[O-]
- VDR inh: 7%

O=C(CN1C(=O)C2(OCCO2)c2ccccc21)c1ccc(Cl)cc1
- VDR inh: -17%

CCCCn1c(N)c(N(CCOC)C(=O)c2cc(Cl)nc3ccccc23)c(=O)[nH]c1=O
- VDR inh: 1%

Cc1ccc(CNC(=O)CCn2cc(-c3ccc(C)cc3)nc2-c2ccncc2)cc1
- VDR inh: -20%

COc1cccc(NC(=S)Nc2ccc(F)cc2)c1
- VDR inh: -5%

CN(CCOc1ccccc1)C(=O)CCc1nc2sc3c(c2c(=O)[nH]1)CCCC3
- VDR inh: -5%

Cc1ccc(-n2nnnc2-c2cnn(-c3cccc(F)c3)c2C(F)(F)F)cc1
- VDR inh: -1%

N#C/C(=C/c1ccc(O)c(O)c1)c1nc2ccccc2[nH]1
- VDR inh: 5%

CC(C)CSc1ncnc2c1oc1nc3c(cc12)COC(C)(C)C3
- VDR inh: -8%

COCCN1CN(S(=O)(=O)c2ccccc2)c2nc3ccccc3nc21
- VDR inh: 4%

CC(C)Cc1nn2c(=O)cc(COC(=O)c3ccc(NC(=O)c4cccs4)cc3)nc2s1
- VDR inh: 11%

Cc1nn(CCc2n[nH]c(=S)n2-c2cccc(Cl)c2)c(C)c1[N+](=O)[O-]
- VDR inh: 1%

COC(=O)c1cc(S(=O)(=O)NCC2CCN(CCc3cccs3)CC2)cn1C
- VDR inh: -2%

Cc1ccc2c(c1)C1CN(C)CCC1N2C(=O)c1ccc(Cl)c(S(=O)(=O)N2CCOCC2)c1 (stereo not drawn)
- VDR inh: -6%

COc1ccc(CCn2c3c(c(=O)[nH]c2=O)C(NC(=O)c2ccc(Cl)cc2)(C(F)(F)F)C(=O)N3)cc1OC (stereo not drawn)
- VDR inh: -9%

CN(Cc1ccccc1)C(=O)COC(=O)COc1ccc(C#N)cc1
- VDR inh: -4%

Cc1cc(C)n(-c2ccc(F)cc2CN2CCN(Cc3ccccc3)C(CCO)C2)n1 (stereo not drawn)
- VDR inh: 1%

CCCCCN(C(=O)NC(=O)NC(C)CC)S(C)(=O)=O (stereo not drawn)
- VDR inh: 3%

COCCn1c(C)cc(C(=O)COC(=O)CCS(=O)(=O)c2ccc(C)cc2)c1C
- VDR inh: 15%

Cc1cc2c(c(=O)n1CCCn1ccnc1)C(c1ccco1)C(C#N)=C(N)O2 (stereo not drawn)
- VDR inh: 6%

CC(=O)N1c2ccc(S(=O)(=O)NCC3CCC(C(=O)Nc4ncccc4C)CC3)cc2CC1C (stereo not drawn)
- VDR inh: ?

CCCc1cc(=O)oc2cc(OCC(=O)NCCCN3CCOCC3)c(Cl)cc12
- VDR inh: -14%

CSCC[C@H](NC(=O)[C@H](CC(C)C)NC(=O)[C@H](Cc1c[nH]c2ccccc12)NC(=O)[C@H](CCC(N)=O)NC(=O)[C@@H](NC(=O)[C@H](Cc1ccccc1)NC(=O)[C@H](CC(=O)O)NC(=O)[C@H](CCC(N)=O)NC(=O)[C@H](C)NC(=O)[C@H](CCCNC(=N)N)NC(=O)[C@H](CCCNC(=N)N)NC(=O)[C@H](CO)NC(=O)[C@H](CC(=O)O)NC(=O)[C@H](CC(C)C)NC(=O)[C@H](Cc1ccc(O)cc1)NC(=O)[C@H](CCCCN)NC(=O)[C@H](CO)NC(=O)[C@H](Cc1ccc(O)cc1)NC(=O)[C@H](CC(=O)O)NC(=O)[C@H](CO)NC(=O)[C@@H](NC(=O)[C@H](Cc1ccccc1)NC(=O)[C@@H](NC(=O)CNC(=O)[C@H](CCC(N)=O)NC(=O)[C@H](CO)NC(=O)[C@@H](N)Cc1cnc[nH]1)[C@@H](C)O)[C@@H](C)O)C(C)C)C(=O)N[C@@H](CC(N)=O)C(=O)N[C@H](C(=O)O)[C@@H](C)O
- VDR inh: 3%

CCOC(=O)c1ccc(N2CC3=C(C2=O)C(c2ccc(OC)cc2)NC(=O)N3C)cc1 (stereo not drawn)
- VDR inh: 2%

CCCCCNC(=O)C(=O)NCC(c1ccc2c(c1)OCO2)N1CCOCC1 (stereo not drawn)
- VDR inh: -6%

Cc1ccc(-c2nc3ccccc3o2)cc1NC(=O)Cc1cccs1
- VDR inh: 13%

CCC(=O)Nc1ccc2c(c1)nc(CCNC(=O)c1ccco1)n2C
- VDR inh: -5%

COCC(=O)N1c2nc(-c3ccco3)nn2C2(CCCCC2)[C@@H]2CCCC[C@@H]21
- VDR inh: 5%

COc1cccc(N2C(=O)CSC23C(=O)N(CC(=O)NCc2ccc(C)cc2)c2ccccc23)c1 (stereo not drawn)
- VDR inh: 16%

CS(=O)(=O)N1CCN(c2ccccc2NC(=O)c2cc3ccccc3o2)CC1
- VDR inh: -17%

CC(NC(=O)COC(=O)/C=C/c1cccc(F)c1)c1ccccc1 (stereo not drawn)
- VDR inh: -23%

CC(N=C1NS(=O)(=O)c2ccccc21)C(=O)NCc1ccncc1 (stereo not drawn)
- VDR inh: 7%

Cc1cccnc1NC(=O)CCc1nnc2ccc(N3CCC4(CC3)OCCO4)nn12
- VDR inh: 5%

CCC(=O)c1ccc(N2CCN(C(=O)COc3ccccc3F)CC2)c(F)c1
- VDR inh: 3%

CCOc1cc(/C=C2\SC(=S)N(NC(=O)c3cccnc3)C2=O)ccc1O
- VDR inh: -5%

Cc1ccc(SCC(=O)Nc2ccc(N3CCOCC3)cc2)cc1
- VDR inh: -18%

COc1ccc(NC(=O)CN(C)C(=O)c2ccc(NS(=O)(=O)c3ccc(F)cc3)cc2)cc1
- VDR inh: -21%

Cc1ccc(C(=O)NC2CCCc3ccccc32)cc1[N+](=O)[O-] (stereo not drawn)
- VDR inh: -5%

Cc1ccccc1C(=O)OCCN(C)Cc1ccccc1
- VDR inh: -2%

COc1cccc(C2SCC(=O)N2c2ccc(Br)cc2)c1OC (stereo not drawn)
- VDR inh: -13%

O=C(Cc1coc(-c2ccc(F)cc2)n1)N1CCOCC1
- VDR inh: -8%

Cc1csc(NC(=O)CSc2nc(C)cs2)n1
- VDR inh: -2%

COc1ccc(C2=NOC(Cn3nc(-c4ccccc4)cc3C(=O)NCc3ccco3)C2)cc1 (stereo not drawn)
- VDR inh: 6%

COCC1CCN(C(=O)CC2C(=O)NCCN2Cc2cccc(Oc3ccccc3)c2)CC1 (stereo not drawn)
- VDR inh: -19%

O=C(NNC(=O)c1ccccc1Br)c1ccc(Cl)c(Cl)c1
- VDR inh: -3%

Cc1cccc(NC(=S)NCC(c2ccccc2)N(C)C)c1 (stereo not drawn)
- VDR inh: -16%

CCOC(=O)C1CCN(Cc2ccc3ccccc3c2)CC1
- VDR inh: -7%

CC(C)[C@H](NC(=O)C1CCN(S(=O)(=O)c2ccc(F)cc2)CC1)C(=O)NCc1ccco1
- VDR inh: -26%

CC(C)(C)c1csc(NC(=O)C2=COCCO2)n1
- VDR inh: 2%

Cc1cccc(CSCCNC(=O)CSCc2ccc([N+](=O)[O-])cc2)c1
- VDR inh: -9%

C=CCN(Cc1cccc(OC)c1OC)C(=O)Oc1ccccc1
- VDR inh: 10%

COC(=O)c1cc(-c2ccc(Cl)cc2)n[nH]1
- VDR inh: 13%

COc1ccc(C(=O)NC(C)CCc2ccccc2)c(OC)c1 (stereo not drawn)
- VDR inh: -16%

COc1ccc(C(O)C(CN2CCOCC2)c2ccccc2)cc1 (stereo not drawn)
- VDR inh: 2%

CCN1CCCC1CNC(=O)c1ccc2c(c1)N(Cc1ccccc1F)C(=O)c1ccccc1S2(=O)=O (stereo not drawn)
- VDR inh: -8%

CCc1ccccc1NC(=O)c1ccc2c(c1)CCN2S(C)(=O)=O
- VDR inh: 22%&-6%
